pPAFAH inh – pPAFAH enzyme inhibitors, primary screen, biochemical, fluorescence polarization, human; Platelet-activating factor acetylhydrolase (Homo sapiens), Q13093; recombinant pPAFAH, FP-rhodamine probe fluorescence polarization; hit rate 1.5% among 330,000; inhibition, % at 3.39 µM;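 active = inhibition above the mean inhibition across the screen plus 3 SD, cut at about 25% in these data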;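 also: inhibitors block binding of the rhodamine activity-based probe so polarization drops; 0% = enzyme with DMSO and 100% = wells lacking pPAFAH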
Target sequence (Q13093 whole entry, looked up): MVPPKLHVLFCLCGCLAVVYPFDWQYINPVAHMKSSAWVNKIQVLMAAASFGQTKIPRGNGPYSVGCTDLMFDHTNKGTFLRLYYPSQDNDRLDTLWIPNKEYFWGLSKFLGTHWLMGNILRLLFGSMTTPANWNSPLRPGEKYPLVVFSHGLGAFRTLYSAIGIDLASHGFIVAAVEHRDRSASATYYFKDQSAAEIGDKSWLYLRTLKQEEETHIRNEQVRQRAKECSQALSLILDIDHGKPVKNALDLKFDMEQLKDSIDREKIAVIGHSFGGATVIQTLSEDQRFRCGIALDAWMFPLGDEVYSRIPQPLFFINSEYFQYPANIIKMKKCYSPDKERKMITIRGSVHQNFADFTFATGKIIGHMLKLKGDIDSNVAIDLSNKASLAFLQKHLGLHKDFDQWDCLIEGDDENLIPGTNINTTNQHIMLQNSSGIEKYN
EBNA-1 inh – EBNA-1 DNA-binding inhibitors, primary screen, biochemical, fluorescence polarization; inhibition, % at 14.8 µM; hit rate 0.34% among 300,000; AID 1950, 2009; in the data active = inhibition above about 28%
LYPLA1 inh – LYPLA1 inhibitors, primary screen, counter-screen for PME1 inhibitor project, biochemical, fluorescence polarization, FP-Rh probe ABPP; hit rate 0.16% among 320,000; recombinant LYPLA1; inhibition, % at 5.9 µM;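 active = inhibition above the mean of all tested compounds plus 3 SD, set per campaign, cut at about 14% in these data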;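 also: inhibitors block serine hydrolase probe labeling of LYPLA1 so polarization falls; 0% = enzyme with DMSO and 100% = wells lacking LYPLA1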
PAFAH2 inh – PAFAH2 enzyme inhibitors, primary screen, biochemical, fluorescence polarization, human. recombinant PAFAH2, FP-rhodamine activity probe. inhibition, % at 3.39 µM. hit rate 0.99% among 340,000;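 active = inhibition above the mean over all tested compounds plus 3 SD, cut at about 30% in these data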;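 also: inhibitors block probe labeling of enzyme so polarization drops; 0% = enzyme with DMSO and 100% = wells lacking PAFAH2 protein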
PAFAH1B3 inh – PAFAH1B3 enzyme inhibitors, primary screen, biochemical, fluorescence polarization, human; AID 492972, 2010; inhibition, % at 3.39 µM; hit rate 0.28% among 340,000; recombinant PAFAH1B3, FP-rhodamine probe; Platelet-activating factor acetylhydrolase IB subunit alpha1 (Homo sapiens), Q15102;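 active = inhibition above the screen-wide average of all tested compounds plus 3 SD, cut at about 25% in these data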;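 also: 0% = enzyme with DMSO only and 100% = wells lacking PAFAH1B3 protein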
Target sequence (Q15102 whole entry, looked up): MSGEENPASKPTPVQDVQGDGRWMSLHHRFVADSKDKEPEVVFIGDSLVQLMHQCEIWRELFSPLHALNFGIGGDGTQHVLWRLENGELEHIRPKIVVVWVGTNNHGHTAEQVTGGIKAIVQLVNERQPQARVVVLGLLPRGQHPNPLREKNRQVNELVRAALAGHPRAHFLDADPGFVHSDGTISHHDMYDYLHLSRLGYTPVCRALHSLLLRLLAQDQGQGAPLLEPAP
PAFAH1B2 inh – PAFAH1B2 enzyme inhibitors, primary screen, biochemical, fluorescence polarization, human | hit rate 1.2% among 340,000 | recombinant PAFAH1B2, FP-rhodamine activity probe | AID 492953, 2010 | inhibition, % at 3.39 µM;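 active = inhibition above the mean of all tested compounds plus 3 SD, cut at about 24% in these data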;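 also: 0% = enzyme with DMSO and 100% = wells lacking PAFAH1B2; many of its hits are not listed in these tables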
ZTA counter – blocks Epstein-Barr virus ZTA, an EBNA-1 counter-screen. P03206. ZTA-DNA binding, fluorescence polarization. inhibition, % at 11 µM. hit rate 0.15% among 320,000; in the data active = inhibition above about 33%
Target sequence (P03206 whole entry, looked up): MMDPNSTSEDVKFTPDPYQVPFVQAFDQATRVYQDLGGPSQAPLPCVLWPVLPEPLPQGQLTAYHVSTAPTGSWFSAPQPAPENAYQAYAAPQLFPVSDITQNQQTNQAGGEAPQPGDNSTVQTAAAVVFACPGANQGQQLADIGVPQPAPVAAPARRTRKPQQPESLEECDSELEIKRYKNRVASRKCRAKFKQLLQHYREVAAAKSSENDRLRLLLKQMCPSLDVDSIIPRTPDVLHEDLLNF
LYPLA2 inh – LYPLA2 inhibitors, primary screen, counter-screen for PME1 inhibitor project, biochemical, fluorescence polarization, FP-Rh probe ABPP; Acyl-protein thioesterase 2 (Homo sapiens), O95372; recombinant LYPLA2; inhibition, % at 5.9 µM; hit rate 0.38% among 320,000;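 active = inhibition above the screen-wide mean plus 3 SD, limit set per campaign, cut at about 26% in these data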;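 also: 0% = LYPLA2 with DMSO and 100% = wells lacking LYPLA2 enzyme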
An asterisk follows results filed as active; / = not tested or not shown. This is a subset (hit frequency here may not be typical).

SMILES | pPAFAH inh | EBNA-1 inh | LYPLA1 inh | PAFAH2 inh | PAFAH1B3 inh | PAFAH1B2 inh | ZTA counter | LYPLA2 inh
CCOC(=O)/C(O)=C(\C#N)c1nc2ccccc2[nH]1 | 8 | 4 | 0 | 4 | 0 | 2 | 13 | 7
COc1ccc(/C=C/C(=O)Oc2ccc(C=O)cc2OC)cc1 | -2 | -10 | 2 | -5 | 5 | 6 | -4 | 9
Cc1cc(N2CCN(C)CC2)nc2ccc(NC(=S)N3CCN(c4ccccn4)CC3)cc12 | 6 | 1 | -2 | -3 | 1 | -2 | -16 | 2
CCOc1cc(/C=N/N=C(N)N)ccc1OCc1ccc(Cl)cc1 | 4 | -4 | -2 | 3 | 5 | 3 | 9 | -3
Cc1c(/C=N/NC(N)=O)c2ccccn2c1C(=O)c1ccncc1 | -1 | -11 | -2 | 4 | 2 | 2 | -18 | 4
O=C(/C=C/c1cn(CC(O)CN2CCCCC2)c2ccccc12)c1cccs1 (stereo unspecified) | 7 | -4 | -2 | -6 | -2 | -1 | 1 | -7
CCOC(=O)Cn1c(=O)c2c(nc3n2CCCN3CCc2ccccc2)n(C)c1=O | 5 | 10 | -2 | 5 | 12 | 1 | 12 | 1
Cc1c(C#N)c(N=CN(C)C)c(C(=O)c2ccccc2)n1-c1ccc(Br)cc1 | 0 | 6 | 2 | 7 | 3 | 1 | -3 | 4
CC(C)(C)NC(=O)c1ccc2c(c1)N(CC(=O)N1CCN(c3ccc(F)cc3)CC1)C(=O)C(C)(C)O2 | -2 | 2 | 1 | -5 | 4 | 4 | 4 | 10
CCN(CC(=O)NCc1cccs1)c1ccc(S(=O)(=O)N2CCN(C)CC2)cn1 | 3 | 8 | 4 | 2 | 2 | 15 | 0 | 2
Cc1ccc(Nc2nnc(SC(C)C(=O)NCC3CCCO3)s2)cc1C (stereo unspecified) | 12 | 3 | -3 | 11 | 1 | 7 | 16 | -1
CSc1ccc(CN(C)C(=O)c2cccc(S(=O)(=O)N3CCN(Cc4ccccc4)CC3)c2)cc1 | 5 | -12 | -1 | 2 | -5 | 0 | 3 | 2
O=C(CN1CCN(c2ccccc2O)CC1)Nc1cc(S(=O)(=O)N2CCCC2)ccc1Cl | 9 | / | 4 | 2 | -10 | 1 | -21 | 2
Cc1cc(N2CCOCC2)nc2ccc(NC(=S)N3CCN(c4ccccc4)CC3)cc12 | 9 | 4 | -4 | -3 | 3 | 5 | -17 | 6
COc1ccc(Nc2nc(N)nc(CSC(=S)N3CCN(c4ccccc4)CC3)n2)cc1 | 4 | -8 | -12 | 2 | 0 | 4 | 2 | 3
COCCNC(=O)CSc1nc2ccc(N3CCOCC3)cc2c(=O)n1Cc1ccc(OC)cc1 | 3 | -14 | 2 | -8 | 8 | -1 | -10 | 7
Cn1c(OCc2ccc3c(c2)OCO3)nc2c1c(=O)n(Cc1cccc(Cl)c1)c(=O)n2C | 6 | 2 | 2 | -1 | 10 | 10 | 0 | 9
CC1C(=O)N2CCCc3cc(NC(=O)C(=O)NCCc4ccc(F)cc4)cc1c32 (stereo unspecified) | 11 | -5 | 2 | 3 | 5 | 6 | -8 | 3
Cc1cccc(S(=O)(=O)C(C#N)c2nc3ccccc3nc2N2CC(C)OC(C)C2)c1 (stereo unspecified) | 3 | 4 | 4 | 6 | 4 | 1 | 5 | 6
COc1ccc(OC)c(C2=NOC(C(=O)N3CCN(c4ccccc4)CC3)C2)c1 (stereo unspecified) | 6 | 7 | 0 | -10 | 6 | 9 | 5 | 0
Cc1cc(NC(=O)CSc2nc3c(c(=O)n2-c2ccccc2)SC(C)C3)no1 (stereo unspecified) | 0 | -4 | 1 | -8 | -6 | 2 | -6 | -1
CCCc1[nH]c(=O)c(C#N)c2c1CCCC2 | 3 | -10 | 5 | -4 | -1 | 3 | -19 | 3
CC(C)OCCCN1C(=O)c2[nH]nc(-c3ccccc3O)c2C1c1cccc(Cl)c1 (stereo unspecified) | 6 | -6 | -2 | 4 | 5 | 3 | -11 | -6
COC(=O)c1cc(=O)n(CCc2ccccc2F)c(=Nc2ccc(F)c(Cl)c2)s1 | -3 | -3 | -15 | -26 | -19 | -3 | 12 | -32
Cc1cc(C)n2nc(SCC(=O)N3CCN(c4ccc(F)cc4)CC3)nc2n1 | 0 | / | 6 | -3 | 13 | 0 | -1 | 7
O=C(Cc1cccs1)Nc1ccc(S(=O)(=O)N2CCCC2)cc1 | 21 | -4 | -6 | 10 | 8 | 5 | 3 | 2
COc1cccc(C2CC(c3ccc(Cl)cc3)Nc3nc(N)nn32)c1 (stereo unspecified) | -2 | 5 | 3 | 5 | -1 | 6 | -2 | 9
COc1cccc(C2CC(c3ccc(Cl)cc3Cl)Nc3nc(N)nn32)c1 (stereo unspecified) | 1 | 3 | 1 | 2 | 5 | 2 | 7 | 19
C=CCNc1nc(-c2ccccn2)nnc1-c1ccccc1 | 11 | 1 | -5 | 0 | 13 | 3 | 19 | -3
CCOC(=O)c1[nH]c2ccc(Br)cc2c1NC(=O)CCN1CCN(C(=O)OCC)CC1 | 3 | 9 | -1 | 2 | 7 | 6 | 6 | 4

Filtered by structure, the entries above containing an aryl thioether with sulfur outside any ring.
SMILES | pPAFAH inh | EBNA-1 inh | LYPLA1 inh | PAFAH2 inh | PAFAH1B3 inh | PAFAH1B2 inh | ZTA counter | LYPLA2 inh
Cc1ccc(Nc2nnc(SC(C)C(=O)NCC3CCCO3)s2)cc1C (stereo unspecified) | 12 | 3 | -3 | 11 | 1 | 7 | 16 | -1
CSc1ccc(CN(C)C(=O)c2cccc(S(=O)(=O)N3CCN(Cc4ccccc4)CC3)c2)cc1 | 5 | -12 | -1 | 2 | -5 | 0 | 3 | 2
COCCNC(=O)CSc1nc2ccc(N3CCOCC3)cc2c(=O)n1Cc1ccc(OC)cc1 | 3 | -14 | 2 | -8 | 8 | -1 | -10 | 7
Cc1cc(NC(=O)CSc2nc3c(c(=O)n2-c2ccccc2)SC(C)C3)no1 (stereo unspecified) | 0 | -4 | 1 | -8 | -6 | 2 | -6 | -1
Cc1cc(C)n2nc(SCC(=O)N3CCN(c4ccc(F)cc4)CC3)nc2n1 | 0 | / | 6 | -3 | 13 | 0 | -1 | 7

(more compounds)
SMILES | pPAFAH inh | EBNA-1 inh | LYPLA1 inh | PAFAH2 inh | PAFAH1B3 inh | PAFAH1B2 inh | ZTA counter | LYPLA2 inh
CCSc1nnc2c(n1)[nH]c1c(C)cccc12 | 4 | 4 | -4 | 1 | 6 | 5 | 27 | 1
CC1Cc2nc(SCC(=O)N3CCN(c4ccccc4)CC3)n(CCc3ccccc3)c(=O)c2S1 (stereo unspecified) | 12 | 1 | -3 | 0 | -4 | 4 | 5 | 1
COC(=O)c1ccc(OCC(O)CN2CCc3cc(OC)c(OC)cc3C2c2ccccc2)cc1 (stereo unspecified) | 1 | 10 | 2 | -2 | 10 | 6 | -3 | 1
CCOC(=O)N/N=C/c1c(C)c(C(=O)c2ccc(F)cc2)n2ccccc12 | 9 | 2 | 0 | -6 | 8 | 3 | -7 | 9
Cn1c(NCc2ccco2)nc2c1c(=O)n(Cc1ccc(Cl)cc1Cl)c(=O)n2C | -6 | 0 | -3 | 10 | 13 | 5 | -5 | -2
COc1cc(CNCCN2CCOCC2)ccc1OCc1ccc(Cl)cc1 | 0 | 0 | 4 | 2 | 2 | 2 | -18 | 6
O=C(CN1CCN(S(=O)(=O)c2cccc(Br)c2)CC1)NCCc1cccs1 | 2 | / | -1 | 2 | 4 | 2 | -5 | 0
CCCN(CCC)CC(O)Cn1cc(/C=C/C(=O)c2cccs2)c2ccccc21 (stereo unspecified) | 8 | -1 | -1 | 1 | 5 | 2 | -6 | 0
CC1CN(C2CCCCC2)c2nc3c(c(=O)[nH]c(=O)n3C)n2C1 (stereo unspecified) | 2 | -3 | -2 | -4 | -3 | -3 | -6 | -1
O=C(CSc1nc(=O)n2ccccc2n1)N1CCN(c2ccccc2)CC1 | 8 | -14 | -1 | -4 | -3 | -6 | 1 | -6
Cc1cc(C)nc(SCc2cc(=O)c(OC(=O)c3ccco3)co2)n1 | -1 | -15 | -2 | 10 | -21 | 3 | -17 | -2
NS(=O)(=O)c1ccc(Nc2nc(-c3ccc4ccccc4c3)cs2)cc1 | 24 | 3 | -19 | -1 | 12 | 0 | 27 | -6
COc1ccc(OC)c(Nc2nc(-c3c(C)nc4ncccn34)cs2)c1 | 19 | 6 | -3 | 11 | 2 | 4 | -27 | 1
O=C(CSc1ccc(-c2ccccn2)nn1)Nc1nccs1 | 3 | -5 | 6 | 0 | 11 | 4 | 9 | 7
O=C(NCCc1c[nH]c2ccccc12)C(=O)Nc1cc2c3c(c1)CC(=O)N3CCC2 | 9 | -1 | 1 | 13 | 7 | 4 | 0 | 4
COc1ccc(/C=N/NC(=O)CN2CCSCC2)cc1C | 8 | 1 | 1 | -3 | 6 | 3 | 14 | 0
COC(=O)c1c(C(=O)OC)c2ccccn2c1C(=O)c1ccccc1 | -2 | -9 | -2 | -3 | 1 | 9 | -6 | -5
Cn1c(=O)n(Cc2ccc(F)cc2)c(=O)c2c1nc1n2CCN1Cc1ccco1 | 0 | -8 | 1 | 5 | 3 | 5 | -5 | 3
CCOC(=O)c1cc2c(ccn2C)n1CC(=O)N1CCN(c2cccc(C(F)(F)F)c2)CC1 | 18 | 19 | 0 | 6 | 0 | -1 | 17 | 4
CC(C)(C)CN1CCN(Cc2nc(-c3ccc(F)cc3)cs2)CC1CCO (stereo unspecified) | 3 | -2 | -1 | 6 | 8 | 2 | 2 | 0
CCOC(=O)C1=CCN(Cc2ccccc2)CC1 | -4 | -1 | -3 | 2 | 5 | 4 | 4 | -2
COc1ccc(CCN2C(=O)c3[nH]nc(-c4ccccc4O)c3C2c2cccc(Cl)c2)cc1 (stereo unspecified) | -2 | -2 | -16 | -2 | 8 | -1 | 15 | -21
Cc1c(C=O)c2ccccn2c1C(=O)c1cccc([N+](=O)[O-])c1 | 1 | -6 | 1 | 1 | 13 | -2 | 0 | 5
COc1cc(/C=C2/SC(=O)NC2=O)ccc1OC(=O)c1ccco1 | 6 | 14 | 4 | -16 | 0 | 7 | 11 | 9
O=C(CN1CCN(c2ccc(F)cc2)CC1)Nc1ccccc1[N+](=O)[O-] | 7 | 9 | 0 | 7 | 5 | 3 | 8 | -1
Oc1ccc(-c2nc3ncccn3c2Nc2ccc3c(c2)OCCO3)cc1 | 6 | -1 | 2 | 9 | 5 | -2 | 8 | 11
CCOc1ccc(C(O)Cn2c(=N)n(CCN3CCCCC3)c3ccccc32)cc1 (stereo unspecified) | 3 | 8 | 2 | 1 | 1 | 7 | -3 | 6
O=C(CCC(=O)N1CCOc2ccccc21)NC1CCCCCC1 | -3 | -3 | 0 | 4 | 6 | 2 | 2 | -1
CCN(CC)S(=O)(=O)c1cccc(C(=O)OCC(=O)Nc2ccc3c(c2)c2ccccc2n3CC)c1 | 13 | 5 | -6 | -4 | 10 | 1 | 0 | -4
COC(=O)c1[nH]c2cc(OC)ccc2c1NC(=O)CCN1CCN(c2cccc(C)c2C)CC1 | 9 | -3 | 0 | -3 | 5 | -2 | -7 | -2
Cc1cc(=O)n2nc(N3CCC(C(=O)N4CCN(c5ccccc5)CC4)CC3)sc2n1 | 11 | 0 | 1 | 8 | -1 | 5 | 4 | 20
C=CCOc1ccc(/C=N/NC(=O)CN2CCOCC2)cc1OCC | -3 | -12 | 0 | / | / | / | 0 | -3
COc1ccc2[nH]c3c(N4CCN(Cc5ccc6c(c5)OCO6)CC4)ncnc3c2c1 | 13 | 8 | 9 | 4 | 0 | 2 | 5 | 7
NCCN1CCN(S(=O)(=O)c2ccc([N+](=O)[O-])cc2)C=C1c1ccc(Cl)cc1 | 0 | / | 2 | 3 | 2 | 14 | -9 | 0
CC1Cc2nc(SCC(=O)N3CCN(c4ccccc4)CC3)n(C)c(=O)c2S1 (stereo unspecified) | 7 | -8 | -2 | -6 | 2 | 0 | -6 | 11

From PubChem
